Screening results: PubChem BioAssay, several laboratories
UCH37 inh – inhibitors of human deubiquitinating enzyme UCH37. purified proteasome/UCH37, Ub-AMC cleavage fluorescence. 330,000 compounds, 0.33% hits. Q9Y5K5. inhibition, % (test concentration not listed). AID 588478;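 active = mean of two replicates above 20%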;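 note: 0% = compound-free wells with enzyme and 100% = wells lacking proteasome; stock transfer was 100 nL into about 20 µL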
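Assay system: Proteasome-bound UCH37. Buffer or medium: pH 7.4 Tris-HCl (50 mM) with ovalbumin, ATP-MgCl2, DTT. Incubation: 30 min preincubation with enzyme, 25 min cleavage at room temperature. Measured by: fluorescence, ex 355 nm, em 460 nm. Read-out basis: percent inhibition. Control set: wells without proteasome as full block, compound-free enzyme plus substrate as uninhibited.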
FGF22 binding – binders of recombinant human FGF22 by thermal shift. SYPRO orange fluorescence; percent of sucrose octasulfate shift, DMSO zero. calls only at 9.99 µM. 340,000 compounds, 1.5% hits;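 active = melting point raised past a set limit in the mean and every replicate; inconclusive = no clear call; three in four hits are not shown here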
E coli growth – inhibitors of Escherichia coli growth; OD600 absorbance (concentration not given with the values); AID 1053175; OD600, 23 h; stronger effect = lower value; 330,000 compounds, 0.21% hits;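 active = OD600 absorbance below the run mean of sample wells minus 3.6 SD, in any replicate, cut at about 0.56 in these data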;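 note: stock transfer was 300 nL into about 60 µL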
RanGTP-Imp inh – disruptors of Ran-importin-beta complex formation – biochemical, FRET, CFP-Ran, YFP-importin-beta, homogeneous, primary screen | 300,000 compounds, 1.1% hits | cell-free CFP-Ran/YFP-importin-beta FRET ratio | AID 2216 | inhibition, % (no concentration beside the values);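 active = most replicates above 15%; inconclusive = exactly half above 15%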;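 note: 0% = DMSO wells and 100% = Ran loaded with GDP instead of GTP; wells of about 40 µL received 100 nL stock; the first replicate is given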
HNF4A DNA FP – change in binding of human HNF4 alpha to DNA | P41235 | activity change, % at 10 µM | 360,000 compounds, 0.3% hits | HNF4a-FITC DNA binding, fluorescence polarization, 1 h | AID 1224865; in the data active = activity change above about 30%, passing the limit was not always enough;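 note: controls were the assay level and a saturating level of protein; the project sought stronger binding though the title names inhibitors; some compounds called inactive have numbers as strong as hits; positive values seem to mean higher polarization but the record does not say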
Target sequence (P41235 whole entry, looked up): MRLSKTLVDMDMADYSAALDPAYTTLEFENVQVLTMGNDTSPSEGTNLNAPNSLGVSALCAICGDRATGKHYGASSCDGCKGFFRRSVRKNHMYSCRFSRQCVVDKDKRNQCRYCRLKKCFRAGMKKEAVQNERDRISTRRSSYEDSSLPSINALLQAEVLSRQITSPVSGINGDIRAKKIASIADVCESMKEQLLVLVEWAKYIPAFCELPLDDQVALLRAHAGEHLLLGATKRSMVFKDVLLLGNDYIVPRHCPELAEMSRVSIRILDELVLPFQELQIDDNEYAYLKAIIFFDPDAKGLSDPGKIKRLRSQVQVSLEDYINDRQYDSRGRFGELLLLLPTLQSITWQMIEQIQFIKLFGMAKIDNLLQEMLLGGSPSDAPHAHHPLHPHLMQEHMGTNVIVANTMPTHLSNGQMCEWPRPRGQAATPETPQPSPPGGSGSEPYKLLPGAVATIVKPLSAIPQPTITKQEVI
AF4-AF9 inh – MLL-AF4/AF9 protein interaction inhibition; P42568; AlphaScreen, biotin-AF4 peptide binding to FLAG-AF9; inhibition, % at 10 µM; 350,000 compounds, 0.47% hits;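 active = every replicate reaching a set inhibition limit, whatever the replicate mean, cut at about 25% in these data; inconclusive = mean inhibition reaches that limit but some replicates miss it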;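 note: 0% = plate neutral control median and 100% = total signal loss; the record names both 10 and 1 µM as test concentration; the first replicate is given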
Target sequence (P42568 whole entry, looked up): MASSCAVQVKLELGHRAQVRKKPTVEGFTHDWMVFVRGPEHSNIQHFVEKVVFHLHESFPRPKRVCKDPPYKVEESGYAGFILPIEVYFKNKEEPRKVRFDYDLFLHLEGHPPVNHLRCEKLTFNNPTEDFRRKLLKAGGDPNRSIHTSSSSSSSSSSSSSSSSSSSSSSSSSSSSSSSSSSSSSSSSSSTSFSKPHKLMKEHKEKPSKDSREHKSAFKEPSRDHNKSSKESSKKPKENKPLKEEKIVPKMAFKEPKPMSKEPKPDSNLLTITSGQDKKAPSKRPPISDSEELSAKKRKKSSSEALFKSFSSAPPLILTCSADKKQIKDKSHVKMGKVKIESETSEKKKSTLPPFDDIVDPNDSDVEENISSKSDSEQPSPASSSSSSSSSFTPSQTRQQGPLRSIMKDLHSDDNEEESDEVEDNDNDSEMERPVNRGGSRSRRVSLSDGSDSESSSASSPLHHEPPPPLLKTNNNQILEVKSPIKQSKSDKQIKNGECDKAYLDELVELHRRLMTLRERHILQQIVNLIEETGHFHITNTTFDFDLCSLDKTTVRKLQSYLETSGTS
Vif TR-FRET – HIV-1 Vif–A3G interaction blockers – biochemical, TR-FRET, GST-Vif 1-94, biotin-A3G peptide, dose response retest, primary screen (AID 1117319). 260,000 compounds, 0.57% hits. TR-FRET GST-Vif / biotin-A3G peptide binding; higher % means a stronger effect; test concentration not given here; strong numbers were not always called active. inhibition, %; hits with a dose series show IC50 in µM;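 active = above the screen mean plus three standard deviations and confirmed in dose response; inconclusive = results disagree or hit not tested in dose response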;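 note: Vif residues 1-94 fused to GST binding biotinylated APOBEC3G peptide 110-148; 0% = full assay without inhibitor and 100% = GST in place of GST-Vif; retest series ran down from 100 µM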
* = called active by the depositor; i = inactive; ? = inconclusive; / = not tested or not shown; & = joins results of further samples. An excerpt; the hit share may differ from the screen's.

AF4-AF9 inh	UCH37 inh	RanGTP-Imp inh	HNF4A DNA FP	Vif TR-FRET	FGF22 binding	E coli growth	molecule
2.7	2.6	1.1	-0.5	/	i	0.69	O=C(Nc1cccnc1Cl)C1CCCN(c2ncnc3c2nc2n3CCCCC2)C1 (stereo not given)
1.3	1.7	-2.7	2.6	/	i	0.65	O=C(COc1ccc(Br)cc1)NCCCNC(=O)c1cccnc1
/	3.8	2.1	0.8	?	/	0.71	O=C1C2CC=C(Cl)CC2C(=O)N1c1ncn[nH]1 (stereo not given)
/	5.0	0.0	4.5	0%	/	0.71	CCOC(=O)C1=NN(C(=O)c2ccc(C)cc2)C(O)(c2ccc(Cl)cc2)C1 (stereo not given)
0.9	4.0	4.6	2.0	/	i	0.72	Cc1cccc(OCC(=O)NC2CCCC2)c1
-13	4.6	5.6	-0.8	-2%	i	0.74	Cc1nn(Cc2ccccc2)c(C)c1C(=O)NCCN1C(=O)S/C(=C\c2ccc(F)cc2)C1=O
-15	/	/	0.1	/	i	/	CC(=O)c1cccc(-c2ccnc3c2CC(C(=O)NCc2ccncc2)O3)c1 (stereo not given)
-1.1	6.3	-0.2	-0.8	-3%	i	0.69	CC(C)N(C)Cc1nnnn1CC(=O)N(C)Cc1ccc(F)cc1
/	5.7	5.4	-3.1	79%	/	0.72	COc1ccc(OCCNS(=O)(=O)c2ccccc2)cc1
-1.5	1.9	5.5	4.5	3%	i	0.72	CCc1nnc(NC(=O)c2cccc(S(=O)(=O)N3CCCCC3)c2)s1
-2.4	/	-1.2	-1.9	/	/	/	O=C(NCc1ccncc1)C1CCCN1S(=O)(=O)c1ccc(Cl)cc1 (stereo not given)
3.5	4.8	0.2	-1.8	10%	i	0.72	CCC1CCCCN1C(=O)Nc1cc(Cl)ccc1OC (stereo not given)
-14	0.6	1.4	0.5	?	i	0.71	COc1cc(OC)c(N(C)S(=O)(=O)c2cccc(C(=O)NC(C)C3CC4CCC3C4)c2)cc1Cl (stereo not given)
0.9	4.1	-3.8	3.0	-3%	i	0.69	O=c1oc2cc([N+](=O)[O-])ccc2nc1/C=C(\O)c1cccc(Br)c1
2.6	1.7	1.1	3.7	-2%	i	0.69	CCC(C)N(C)C1CCN(C(=S)Nc2ccc(OC)cc2)CC1 (stereo not given)

Brought forward from above: 2 entries, followed by the next part.
AF4-AF9 inh	UCH37 inh	RanGTP-Imp inh	HNF4A DNA FP	Vif TR-FRET	FGF22 binding	E coli growth	molecule
0.9	4.1	-3.8	3.0	-3%	i	0.69	O=c1oc2cc([N+](=O)[O-])ccc2nc1/C=C(\O)c1cccc(Br)c1
2.6	1.7	1.1	3.7	-2%	i	0.69	CCC(C)N(C)C1CCN(C(=S)Nc2ccc(OC)cc2)CC1 (stereo not given)
1.8	0.8	-3.9	0.4	28%	i	0.71	C=CCNC(=S)NNC(=O)c1cc(Cl)ccc1OC
1.9	-7.4	1.2	12	-1%	i	0.77	CCOc1ccccc1C1CC(c2ccccc2)Nc2nc(N)nn21 (stereo not given)
-0.2	-2.9	-4.4	-0.6	14%	i	0.68	CCCCNC(=O)c1ccccc1NC(=O)c1ccc2c(c1)OCO2
-1.4	/	/	-0.3	/	i	/	COc1cccc(CNC(=O)[C@@H]2CCCN2C(=O)[C@H]2CCCCN2C(=O)c2c(F)cccc2F)c1
-11	14	-1.5	0.6	17%	i	0.68	COc1nc(/C=C/N(C)C)c([N+](=O)[O-])c(OC)n1
-1.1	-0.7	0.2	4.7	8%	i	0.69	CCCc1n(CC(O)COC2CCCCC2)c2ccccc2[n+]1C (stereo not given)
-2.2	2.2	-1.5	0.1	/	i	0.71	COC(CNC(=O)c1ccc(N2CCC3(CC2)OCCO3)c([N+](=O)[O-])c1)OC
/	-4.7	-0.3	1.9	-3%	/	0.76	Cc1ccc(-n2ncc3c(=O)n(CC(=O)N4CCCCCC4)cnc32)cc1
/	/	1.0	-4.5	-8%	i	/	Cc1ccc(NC(=S)N/N=C2/CCCCc3ccccc32)cc1
0.9	/	/	3.5	-1%	i	/	CCN(CC)C(=O)C1=C(C)N(Cc2ccc(OC)cc2)C(=O)C(CC(=O)NCCCCc2ccccc2)C1 (stereo not given)
/	-0.5	-3.0	6.2	-2%	/	0.76	O=C(CSc1n[nH]c(-c2ccco2)n1)Nc1sc2c(c1C(=O)Nc1ccccc1)CCCC2
2.5	-7.8	-2.1	3.2	-6%	i	0.73	O=C1Nc2ccccc2S/C1=C/c1cccs1
-0.1	2.2	/	-6.1	/	i	/	Cc1ccc(S(=O)(=O)N2[C@@H](c3cccc(Cl)c3)C(C(=O)O)=CC[C@H]2c2ccc(Cl)cc2)cc1
-2.7	/	/	-1.0	/	i	/	CCCCCCCCN1C(=O)[C@H](CC(=O)NCCC(C)C)C[C@@]2(C(=O)OC)CCCCC=C12
-1.3	1.3	-0.1	1.7	-8%	i	0.66	CCOC(=O)c1cnc(-n2nc(C)cc2C)[nH]c1=O

Nothing new here: entries from further up.
AF4-AF9 inh	UCH37 inh	RanGTP-Imp inh	HNF4A DNA FP	Vif TR-FRET	FGF22 binding	E coli growth	molecule
2.7	2.6	1.1	-0.5	/	i	0.69	O=C(Nc1cccnc1Cl)C1CCCN(c2ncnc3c2nc2n3CCCCC2)C1 (stereo not given)
1.3	1.7	-2.7	2.6	/	i	0.65	O=C(COc1ccc(Br)cc1)NCCCNC(=O)c1cccnc1
/	3.8	2.1	0.8	?	/	0.71	O=C1C2CC=C(Cl)CC2C(=O)N1c1ncn[nH]1 (stereo not given)
/	5.0	0.0	4.5	0%	/	0.71	CCOC(=O)C1=NN(C(=O)c2ccc(C)cc2)C(O)(c2ccc(Cl)cc2)C1 (stereo not given)
0.9	4.0	4.6	2.0	/	i	0.72	Cc1cccc(OCC(=O)NC2CCCC2)c1

More entries follow:
AF4-AF9 inh	UCH37 inh	RanGTP-Imp inh	HNF4A DNA FP	Vif TR-FRET	FGF22 binding	E coli growth	molecule
20	6.1	9.4	17	-5%	i	0.7	C=CC(C)N1C(=O)S/C(=C\c2ccc(N3CCOCC3)cc2C)C1=O (stereo not given)
-0.5	3.1	-0.3	11	/	i	0.71	CSc1ccc(CNC(=O)Cn2nc(C)c3c(C)n(-c4ccc(C)cc4)nc3c2=O)cc1
2.2	4.4	-5.6	1.3	/	i	0.67	O=C(Nc1ccc(C(=O)N2CCOCC2)cc1)c1ccc([N+](=O)[O-])cc1
/	7.7	5.8	0.4	-6%&-11%	/	0.73	COc1ccccc1-n1c(SCC(=O)N(C)C2CCS(=O)(=O)C2)nc2ccccc2c1=O (stereo not given)
0.2	-65	1.3	-0.1	0%	i	0.72	COc1ccc(C2Nc3ccccc3C(=O)N2c2ccc(C)cc2)cc1Cn1nnc2ccccc21 (stereo not given)
/	-3.1	1.7	-6.7	23%	/	0.69	COc1cccc(NC(=O)N2CCC(C(N)=O)(N3CCCCC3)CC2)c1
-0.2	2.7	-1.0	-5.4	-5%	i	0.69	CN(CC(=O)NC1CCCCCC1)S(=O)(=O)c1ccc(F)cc1
0.4	/	3.0	3.4	7%	i	/	COc1ccccc1C(=O)NCC(=O)N/N=C/c1cn[nH]c1-c1ccccc1
-13	4.0	/	-0.9	-1%	i	0.71	Cn1c(CC(=O)NNC(=O)c2ccc(Cl)nc2)nc2ccccc21
-1.9	-1.9	0.4	2.7	17%	i	0.66	CCN(C(=O)CSc1nnnn1C)c1c(N)n(Cc2ccccc2)c(=O)[nH]c1=O
/	10	1.4	3.4	-9%	/	0.67	Oc1[nH]c2ccccc2c1C=NCC1CCCO1 (stereo not given)
11	1.2	1.8	12	1%	i	0.69	Cc1oc(-c2ccc(Cl)cc2)nc1CN1CCC(C(=O)NCCCN2CCCC(C)C2)CC1 (stereo not given)
1.6	/	/	1.4	/	i	/	COc1ccc(NC(=O)Cn2nnc(-c3ccccc3)c2COc2ccc(C(C)=O)cc2)cn1
0.8	1.9	2.5	2.5	0%	i	0.72	O=c1c2ccccc2nnn1COc1cccc(Cl)c1
/	3.5	-1.0	2.8	-12%	i	0.79	O=C(O)C1=C[C@H](c2ccccc2)C[C@H](OCc2ccc(CO)cc2)O1
-8.4	0.3	/	-0.9	-4%	i	0.67	Cc1cccc(NC(=O)CN(C)C(C)C(=O)Nc2ccc(S(=O)(=O)N3CCCC3)cc2)c1C (stereo not given)
4.9	/	-2.4	0.3	-3%	i	/	CC(=O)/C(=N/Nc1ccc(C)cc1)Sc1nnc(CCc2ccccc2)n1-c1ccccc1
-1.0	/	?	0.6	10%	/	/	CCCCNC(=O)C(=O)N/N=C/c1ccc(OCc2ccccc2)cc1
-1.5	2.7	-1.7	-2.8	/	i	0.66	COCCNCC(=O)Nc1ccccc1Sc1ccccc1
-12	/	/	-2.4	/	i	/	COc1cccc(-c2cnc(C(O)c3cc(Cl)cc(Cl)c3)[nH]2)c1 (stereo not given)
-0.7	0.1	-1.8	-1.5	10%	i	0.71	O=C(NCCc1ccc(Cl)cc1)c1cnccn1
1.7	1.8	0.6	1.9	/	i	0.65	CCOC(=O)C1CCCN(CC(=O)Nc2nccs2)C1 (stereo not given)
2.9&-1.4	/	/	4.2	/	i	/	C[C@H]1CN([C@@H](C)CO)S(=O)(=O)c2ccc(Br)cc2O[C@H]1CN(C)C(=O)Cc1ccncc1
/	/	0.9	1.5	6%	/	/	C/C(=N\NS(=O)(=O)c1ccc(Br)cc1)c1cccs1
-1.3	0.5	-2.0	-2.3	?	i	0.68	NC(=O)NOCc1ccc(Cl)cc1Cl
0.4	2.3	2.8	2.4	/	i	0.69	COc1ccc(C(=O)Nc2ccnn2C2CCN(C(=O)c3cnsn3)CC2)cc1
/	-0.8	-5.1	1.1	-2%	/	0.72	O=C(OC1CCN(c2ccc([N+](=O)[O-])cc2)CC1)c1ccccc1
3.0	4.3	-3.0	1.1	4%	/	0.7	CC(=O)NC(C(=O)NCC(N)=O)C(C)C (stereo not given)
/	0.1	2.9	-3.6	-1%	/	0.68	O=C(NCCCn1ccnc1)c1cc(-c2ccc(Cl)cc2)nc2ccccc12
-2.8	/	/	5.1	/	i	/	CC1(C(=O)NS(=O)(=O)c2ccc(Cl)cc2)CCN1C(=O)CCc1ccccc1 (stereo not given)
-2.0	4.7	/	-6.7	/	i	0.73	CCc1ccccc1NC(=S)N1CCCCCC1
/	3.0	-5.7	-2.8	-8%	/	0.71	O=C(Nc1ccc(OC(F)(F)C(F)F)c(NC(=O)c2cccc(F)c2)c1)c1cccc(F)c1
/	0.6	6.2	3.4	?	/	0.74	O=c1cc(O)nc2n1CCCS2
/	0.5	-0.5	-0.7	69%	/	0.67	O=C1c2ccccc2S(=O)(=O)N1CC(O)COc1ccc(Br)cc1 (stereo not given)
1.7	2.9	/	1.2	-1%	i	0.7	O=[N+]([O-])c1ccc(NC(=S)N2CCN(S(=O)(=O)c3ccccc3)CC2)cc1
3.2	0.3	8.0	-3.0	/	i	0.66	CC(=O)N1CCc2c(sc(NC(=O)Cc3ccc(F)cc3)c2C(N)=O)C1
-1.5	2.0	-1.5	-5.4	/	i	0.63	N#CC1=C(N)N2C(=C(C#N)C13CCCC3)Nc1ccccc12
1.7	6.5	4.0	3.1	/	i	0.69	O=C(CCN1C(=O)/C(=C/c2ccccc2F)SC1=S)NCCCN1CCOCC1
-0.1	1.5	?	5.2	7%	i	0.72	CCOC(=O)c1[nH]c2c(c1-c1ccc(OC)cc1)C(=O)CC(c1ccc(OC)c(OC)c1)C2 (stereo not given)
2.3	1.5	/	0.5	/	i	0.67	Cc1ccc([N+](=O)[O-])cc1S(=O)(=O)Nc1ccc(C(=O)N2CCN(C(=O)c3ccco3)CC2)cc1
-4.4	13	/	-1.8	-13%	i	0.66	O=C(NN=Cc1ccc2c(c1)OCO2)c1ccncc1
